# High-throughput results (PubChem)
# HPGD block = HPGD (human) dehydrogenase inhibition; P15428; purified HPGD, NADH fluorescence kinetic, PGE2 substrate; Potency, µM, for the others: at the highest dose activity change, negative = inhibition, actives largely listed as inhibitors; 150,000 tested, 4.3% active; AID 894; active = well fitted inhibition curve with a large enough effect (not every such curve was filed as active); inconclusive = small, poorly fitted or top-dose-only effect, or another doubt; inactive = no such curve, though single readings can be large or run the other way;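 note: top concentration of the series not given in the record; plate controls included wells without enzyme; inactives centre near -10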
# Target sequence (P15428 whole entry, looked up): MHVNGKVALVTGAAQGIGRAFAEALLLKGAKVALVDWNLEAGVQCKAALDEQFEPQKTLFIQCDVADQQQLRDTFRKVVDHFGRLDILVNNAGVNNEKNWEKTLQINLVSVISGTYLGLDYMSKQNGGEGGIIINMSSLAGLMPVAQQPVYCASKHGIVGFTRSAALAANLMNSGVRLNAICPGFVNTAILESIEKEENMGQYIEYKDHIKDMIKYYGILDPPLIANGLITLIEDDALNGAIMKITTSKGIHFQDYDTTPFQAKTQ
#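 20 nM HPGD preincubated 15 min at room temperature with compound in 50 mM Tris-HCl pH 8, 0.01% Tween 20. Started with 1 mM NAD+ and 30 uM prostaglandin E2; NADH fluorescence (360/450 nm) read 5 times over 30-s intervals, last minus first.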
# * = called active by the depositor; ? = inconclusive; & = joins results of further samples. % is set by controls: 0 for no effect and ±100 for the full control effect; potency is the fitted concentration of half-maximal effect. The list is partial. The share of hits here may be higher or lower than overall.
no.	HPGD block	mol
1	?	Cc1ccc2cccc(SCC(=O)N3CCOCC3)c2n1
2	-16%	CN(C)S(=O)(=O)c1cccc(NC(=S)N/N=C/C(=O)c2ccccc2)c1
3	-1%	CC1(c2ccccc2)NC(=O)N(CCN2C(=O)c3ccccc3C2=O)C1=O (centres undefined)
4	?	COc1ccc(-c2ncccc2OC(=O)C23CC4CC(CC(C4)C2)C3)cc1
5	-1%	Cc1cc(C)nc(NC(=O)C(c2ccccc2)c2ccccc2)c1
6	-19%	Cn1c(=O)c2ccccc2n(Cc2ccccc2F)c1=O
7	-5%	CCN1C=C(Cc2ccc(F)cc2)C2=C(C1)C(c1ccc(F)cc1)C(C#N)=C(N)O2 (centres undefined)
8	-10%	O=C(COC(=O)C1CCN(/C=C/C(=O)C(F)(F)F)CC1)Nc1cccc(F)c1
9	-21%	CN(C)CC/C=C1/c2ccccc2Sc2c(O)cc(Cl)cc21
10	-5%&2%	NC(N)=NC(N)=Nc1cccc(Cl)c1
11	-29%	CCn1c(-c2nonc2NC(=O)c2ccccc2)nc2ccccc21
12	-13%	CC(C)CNS(=O)(=O)c1ccc(CCC(=O)N2CCN(Cc3ccccc3)CC2)cc1
13	-12%	C/C(=N\NS(=O)(=O)c1ccccc1)c1cccc(NC(=O)c2cccc(Cl)c2)c1
14	-21%	COC(=O)c1sccc1NC(=O)c1ccoc1C
15	-10%	O=C(CN1C(=O)CSc2cc(S(=O)(=O)N3CCCCCC3)ccc21)NCCc1ccccc1
16	-6%	CN(C)C(=O)CSc1nnc(Cc2ccc([N+](=O)[O-])cc2)o1
17	-9%	Cc1ccccc1NC(=O)C(C)c1cccc(C(=O)c2ccccc2)c1 (centres undefined)
18	-2%	Cc1ccc(-c2nc(N/N=C/c3cccc([N+](=O)[O-])c3)c3ccccc3n2)cc1
19	-29%	CCC(Oc1ccccc1)C(=O)Nc1ccc(S(=O)(=O)Nc2cnc3ccccc3n2)cc1 (centres undefined)
20	-5%	CC1(C)CC(CC(=O)Nc2nccs2)(c2ccccc2)CCO1 (centres undefined)
21	?	COc1ccc(Nc2oc(-c3ccc(Cl)cc3)nc2C#N)cc1
22	-10%	CCCCSc1nnc(-c2ccccc2N)c(=O)[nH]1
23	-17%	CCOc1ccc(NC(=O)CN2CCN(C3c4ccccc4-c4ccccc43)CC2)cc1
24	-9%	CCOc1ccc(-c2n[nH]c(C)c2Oc2ccccc2OC)c(O)c1
25	-11%	N#C/C=C(/N)N1CCN(c2ccc(Cl)c(Cl)c2)CC1
26	14µM*	O=S(=O)(Nc1ccc2c(c1)OCCO2)c1cccs1
27	-13%	Cc1ccc(C(=O)O)c(C(=O)Nc2nc(C)cs2)c1
28	-14%	O=C1C=C(O)CC(c2ccco2)C1 (centres undefined)
29	-10%	O=C(NCCc1ccccn1)c1ccc(S(=O)(=O)N2CCCCCC2)cc1
30	-7%	Cn1nnnc1SCC(=O)N1CCCc2ccccc21

# 2 entries picked at random from those above, as already listed:
no.	HPGD block	mol
4	?	COc1ccc(-c2ncccc2OC(=O)C23CC4CC(CC(C4)C2)C3)cc1
12	-13%	CC(C)CNS(=O)(=O)c1ccc(CCC(=O)N2CCN(Cc3ccccc3)CC2)cc1

# The list continues.
no.	HPGD block	mol
31	-13%	CN(C)c1cccc2c(C=C(C#N)C#N)ccc(N(C)C)c12
32	-1%	CCCC(=O)Nc1sc(C)c(-c2ccc(C(C)CC)cc2)c1C#N (centres undefined)
33	-20%	CCc1nc2ccccc2c(=O)n1NC(=O)c1c(O)c2ccccc2[nH]c1=O
34	-19%	COc1ccccc1CC(=O)Nc1cccc2c1CCCC2
35	-14%	O=C(CCNC(=O)c1ccccc1Cl)Nc1ccc2c(c1)OCO2
36	-12%	C/C(N)=C(/C#N)C(=O)CSc1nnnn1-c1ccc(C)cc1C
37	-20%	CCOC(=O)c1c[nH]c2c3c(ccc2c1=O)CCCC3
38	25µM*	O=C(CSc1ccc(Cl)cc1)c1ccco1
39	-10%	COCc1nn2c(N)c(C#N)cnc2c1-c1ccccc1
40	-24%	Cc1ccc(C(=O)Nc2ccccc2-c2ccccc2)cc1S(=O)(=O)Nc1cccc(C)c1C
41	?	Cc1cc(NC(=O)c2oc3ccccc3c2C)ccc1-n1cnnn1
42	-2%	NCCCN1CCOCC1
43	-18%	Cn1c(-c2c(N)n(CCc3ccccc3)c3nc4ccccc4nc23)nc2ccccc21
44	-18%	Oc1cc2c(c(Cl)c1O)CCNC[C@H]2c1ccccc1
45	-28%	C/C(=N/N=C1/NC(=O)CC(C(=O)Nc2ccccc2)S1)c1cccs1 (centres undefined)
46	-21%	Cc1ccc(C)n1-c1sccc1C(=O)O
47	-24%	CCOC(=O)N1CCC(Nc2c(N3CCN(c4cccc(C(F)(F)F)c4)CC3)c(=O)c2=O)CC1
48	?	CC(=O)C1=C(C)NC(SCC(N)=O)=C(C#N)C1c1sccc1C (centres undefined)
49	?	COCc1cc(C)nc2sc(C(=O)OC(C)C)c(N)c12
50	-15%	COC(=O)c1[nH]c2cc(OC)ccc2c1NC(=O)c1ccc2c(c1)OCO2
51	-12%	CCn1c(C)cc2c(c1=O)C(c1ccccc1)C(C(=O)OC)=C(N)O2 (centres undefined)
52	-18%	CC1=CSC2=NC(=O)/C(=C\c3cccn3-c3ccccc3)C(=N)N12
53	4%	CCS(=O)(=O)N1CCN(Cc2nc3ccccc3c(=O)[nH]2)CC1
54	-6%	O=C(NCCc1ccccc1)C(=O)NCC1CCCO1 (centres undefined)
55	-13%	Cc1cc(C)cc(C(=O)NC(=S)Nc2ccc3[nH]c(=O)[nH]c3c2)c1
56	-10%	Cc1cccc(C(=O)Nc2ccc(O)c3c(=O)cc(-c4ccccc4Cl)oc23)c1
57	?	O=C(CN1CCOCC1)N1CCCc2c1c(=O)oc1ccc(OCc3ccccc3)cc21
58	?	Cc1ccc(C(=O)N/N=C/c2cc(C)n(-c3ccc(Br)cc3)c2C)cc1[N+](=O)[O-]
59	-2%	CCN(CC)CCNC(=O)C(=O)NCC1OCCN1C(=O)c1ccc2c(c1)OCO2 (centres undefined)
60	-7%	O=C(COc1cccc(Br)c1)NN=C1c2ccccc2-c2ccccc21

# Additional entries
no.	HPGD block	mol
61	-9%	c1ccc(Oc2cc(-c3ccccc3)nc(-c3ccccc3)n2)cc1
62	?	NS(=O)(=O)c1ccc(N2N=C(c3ccc(Br)cc3)CC2c2ccc(F)cc2)cc1 (centres undefined)
63	-8%	Cc1c(CCOC(=O)C2C3CC4CC(C3)CC2C4)sc[n+]1CC(=O)c1ccc(Br)cc1 (centres undefined)
64	-11%	CCOC(=O)c1cnc(-n2nc(C)cc2C)nc1NCc1ccc2c(c1)OCO2
65	-18%	O=C1CC(=O)N(CCNc2ncc(C(F)(F)F)cc2Cl)C(=O)N1
66	-6%	CCOc1ccc2nc(NC(NC(=O)CC)(C(=O)OC)C(F)(F)F)sc2c1 (centres undefined)
67	0%	COc1cc(OC)c(NC(=O)CCc2nc(-c3cccs3)no2)cc1Cl
68	-21%	COc1cccc(C(=O)NN2c3ccccc3CCc3ccccc32)c1
69	-7%	CCCCCCCCN1C(=O)C(O)=C(C(C)=O)C1c1ccccn1 (centres undefined)
70	-7%	COc1ccc(/C(O)=C2/C(=O)C(=O)N(CCN(C)C)C2c2ccc(OC)c(OC)c2)c(C)c1 (centres undefined)
71	-9%	CCn1c(=O)n(CC(=O)N2CCN(c3ccccc3F)CC2)c(=O)c2ccccc21
72	-12%	COc1ccc(CNC(=O)c2noc3c2CCCCC3)cc1
73	-20%	Cc1ccc(N2C(=O)CC(c3ccsc3)C3=C2CC(C)(C)CC3=O)cc1 (centres undefined)
74	-8%	COc1cc(OC)cc(C(=O)N[C@H](C(=O)Nc2ccccc2N2CCOCC2)C(C)C)c1
75	-8%	COC(=O)c1ccc(CSc2nc3ccccc3[nH]2)o1
76	-22%	CC(=O)Nc1ccc(S(=O)(=O)NCC2CCC(C(=O)N3CCN(c4ccccn4)CC3)CC2)cc1 (centres undefined)
77	-8%	NCC1OC(n2cnc3c(=O)[nH]c(N)nc32)C(O)C1O (centres undefined)
78	-5%	CCOc1nnnc2c1sc1nc(N3CCOCC3)c3c(c12)CCCC3
79	3.5µM*	Cc1[nH]n(-c2ccccc2)c(=S)c1C=Nc1ccc([N+](=O)[O-])cc1
80	-5%	CCN=C(Nc1cccc(F)c1)SC1CC(=O)N(c2ccc(OC)cc2)C1=O (centres undefined)
81	-17%	CCCCN(CCCC)c1ccc(C(=O)c2ccccc2C(=O)O)c(O)c1
82	0%	COc1cccc(OCCOCCN(C)CCO)c1
83	0%&0%&-7%	N[C@@H](C(=O)O)c1ccc(C(=O)O)c(C(=O)O)c1
84	-4%	CCN1CCN(S(=O)(=O)c2cc(OC)ccc2OC)CC1
85	-10%	O=C(O)CCc1ccc(-c2cccs2)n1NC(=O)c1ccccc1Br
86	-6%	CCCCCCCCCCCCCCCCOP(=O)([O-])OCC[N+](C)(C)C
87	-7%	Cc1ccc(OCC(=O)NNC(=O)c2cc3ccccc3o2)cc1C
88	?	CCN(CC)c1ccc(/C=N/NC(=O)c2c[nH]c3ccccc23)cc1
89	-2%	c1ccc(COCCCc2cnc[nH]2)cc1
90	?	COC(=O)c1cccc(NC(=S)NCCC2=CCCCC2)c1

# Copied from the list.
# Under HPGD block, compound 69 has the entry -7%
# Under HPGD block, compound 11 has the entry -29%
# Under HPGD block, compound 22 has the entry -10%

# Sorted by value in HPGD block (lowest first): 3 from the list above.
no. | structure | HPGD block
71 | CCn1c(=O)n(CC(=O)N2CCN(c3ccccc3F)CC2)c(=O)c2ccccc21 | -9%
84 | CCN1CCN(S(=O)(=O)c2cc(OC)ccc2OC)CC1 | -4%
67 | COc1cc(OC)c(NC(=O)CCc2nc(-c3cccs3)no2)cc1Cl | 0%

# Later entries:
no.	HPGD block	mol
91	-21%	Cc1ccc2oc(=O)c3cnn(CC(=O)N4CCN(c5ccccn5)CC4)c3c2c1
92	-14%	COC(=O)[C@@H]1C[C@@]2(O)[C@H](O)[C@H](O)[C@H](O)C[C@H]2N1Cc1ccc(C(F)(F)F)cc1
93	-5%	CCOc1ccc(/C(O)=C2/C(=O)C(=O)N(Cc3cccnc3)C2c2ccc(N(C)C)cc2)c(C)c1 (centres undefined)
94	-8%	CN(C)/C=C/C=C1C(=O)CCCC1=O
95	-15%	CC(=O)N1CCCc2cc(S(=O)(=O)N(C)CCC#N)ccc21
96	-9%	O=C(O)CCC/C=C\CC1C2CCC(O2)C1CNNC(=O)Nc1ccccc1 (centres undefined)
97	1%	COc1ccc2nc(/N=C\N(C)C)sc2c1
98	-10%	CCOc1ccc(C(=O)C(CN2CCOCC2)c2ccccc2)cc1 (centres undefined)
99	-7%	COC(=O)C(C(=O)OC)C(C[N+](=O)[O-])c1ccc(OC)cc1 (centres undefined)
100	-4%	CCCCNc1ccc(S(N)(=O)=O)cc1[N+](=O)[O-]
101	4µM*	O=C1Nc2ccc(Br)cc2C1=Nc1ccc(-c2nnc3n2CCCCC3)cc1
102	?	O=C(Nc1nnc(-c2ccccc2)o1)c1cc(-c2cccs2)nc2ccccc12
103	-5%	COCCn1nnnc1C(c1cc(OC)ccc1OC)N1CCc2ccccc2C1 (centres undefined)
104	-9%	Cc1ccc(C23CC4CC(CC(C(=O)OCC(=O)NC5CCS(=O)(=O)C5)(C4)C2)C3)cc1 (centres undefined)
105	0%	CC(C)n1nnc2c(=O)oc3ccccc3c21
106	-3%	Cn1c(=O)c2[nH]c(CSCc3ccccc3)nc2n(C)c1=O
107	?	Cn1cc(SCC(=O)Nc2nccs2)c2ccccc21
108	22µM*	CCn1c(SCC(=O)c2ccc(NS(=O)(=O)c3ccccc3)cc2)nnc1-c1cccs1
109	22µM*	CCOC(=O)c1sc(NC(=O)c2cc(-c3ccc(C)cc3)nc3ccccc23)c(C#N)c1C
110	?	CCCCCCc1cc2cc(C(=O)Nc3cccc(OC)c3)c(=O)oc2cc1O
111	14µM*	O=C(Nc1cccnc1)c1ccc(COc2ccccc2Cl)o1
112	-6%	CCNc1nc(NCC)n2c(SCc3ccc(F)cc3)nnc2n1
113	14µM*	CCOC(=O)C(=O)/C(=C\N(C)C)c1onc(-c2c(Cl)cccc2Cl)c1C(=O)OC
114	-2%	O=C(NC1CCCC1)C(c1ccncc1)N(CC1CCCO1)C(=O)Cn1nnc(-c2cccs2)n1 (centres undefined)
115	-26%	COC(=O)/C=C1/SC(=Nc2ccc(C)cc2C)NC1=O
116	-6%	CCC(=O)Nc1cc(C)c(NC(=O)C23CC4CC(CC(C4)C2)C3)cn1
117	-12%	CCOC(=O)c1c(C)c(C(=O)NCCCN2CCCC2=O)c(C)n1CC
118	-9%	O=C(Oc1cccc(-n2cnnn2)c1)c1sc2ccccc2c1Cl
119	-15%	Nc1nnc(SCc2ccc(Cl)cc2)s1
120	?	COc1cccc(-c2cc(C(=O)Nc3cnn(Cc4ccc(F)cc4)c3)no2)c1
121	-9%	COc1cc(C(=O)Oc2ccc3c(OC)c4ccoc4nc3c2OC)cc(OC)c1OC
122	2%	CCC1CCCCN1Cc1nc2c(c(=O)n(C)c(=O)n2C)n1Cc1ccccc1 (centres undefined)

# Reformatted as tab-separated lines: entries from further up
No.	canonical_smiles	HPGD block
105	CC(C)n1nnc2c(=O)oc3ccccc3c21	0%
106	Cn1c(=O)c2[nH]c(CSCc3ccccc3)nc2n(C)c1=O	-3%
107	Cn1cc(SCC(=O)Nc2nccs2)c2ccccc21	?
108	CCn1c(SCC(=O)c2ccc(NS(=O)(=O)c3ccccc3)cc2)nnc1-c1cccs1	22µM*
